# PKD1 kinase inh = inhibitors of human PKD1 kinase, biochemical, fluorescence polarization | 0.056% of 200,000 active | Serine/threonine-protein kinase D1 (Homo sapiens), Q15139 | PKD1 kinase fluorescence polarization assay | inhibition, %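 (about 10 µM by stock and volumes)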;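 active = inhibition of 50% or more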;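 note: controls were vehicle for no effect and a reference inhibitor for full effect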
# INS promoter inh = inhibitors of insulin promoter-driven GFP, primary screen, imaging, TRM-6 cells (human fetal islet line), eGFP reporter, cell count; reporter expression induced with tamoxifen; inhibition, % at 2 µM; 0.9% of 130,000 active;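 active = inhibition above the mean plus 3 SD, with well images judged a real hit on visual review, cut at about 60% in these data, passing the limit was not always enough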
# GALR2 ag = GALR2 receptor agonists, primary screen, cell-based; GALR2-expressing cells, agonist activation read-out; activation, %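 (tested at 5 µM)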; 0.48% of 140,000 active;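 active = above mean plus 3 SD of all compounds, about 5% in these data, not always enough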;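 note: 0% = vehicle buffer wells and 100% = reference agonist at full effect; tested in CHO reporter cells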
# Target sequence (O43603 whole entry, looked up): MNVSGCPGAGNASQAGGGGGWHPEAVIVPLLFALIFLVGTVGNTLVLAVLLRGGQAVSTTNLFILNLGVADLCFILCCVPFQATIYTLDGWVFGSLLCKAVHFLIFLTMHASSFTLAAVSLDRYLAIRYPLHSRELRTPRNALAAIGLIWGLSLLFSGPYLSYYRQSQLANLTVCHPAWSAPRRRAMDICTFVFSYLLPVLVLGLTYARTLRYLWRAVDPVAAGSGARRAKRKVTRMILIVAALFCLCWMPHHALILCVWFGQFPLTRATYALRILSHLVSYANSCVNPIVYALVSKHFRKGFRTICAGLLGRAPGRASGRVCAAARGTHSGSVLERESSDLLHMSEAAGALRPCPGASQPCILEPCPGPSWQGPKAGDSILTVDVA
# RGS16-Gao = modulators of RGS16 binding to Galphao, primary screen, biochemical, human proteins, multiplexed bead flow cytometry. bead-based flow cytometry RGS16-Galphao binding, fluorescence; actives lie on both sides. binding response (% of control), % at 10 µM. Regulator of G-protein signaling 16 (Homo sapiens) + Guanine nucleotide-binding protein …. AID 1441, 2008. 0.38% of 220,000 active;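 active = below 25% or above 175%, edge rows of some plates excepted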;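 note: Galphao activated by GDP with aluminum fluoride before binding; 100% = wells without compound and 0% = beads without RGS; some results beyond the cut were filed as inactive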
# Target sequence (O15492 whole entry, looked up): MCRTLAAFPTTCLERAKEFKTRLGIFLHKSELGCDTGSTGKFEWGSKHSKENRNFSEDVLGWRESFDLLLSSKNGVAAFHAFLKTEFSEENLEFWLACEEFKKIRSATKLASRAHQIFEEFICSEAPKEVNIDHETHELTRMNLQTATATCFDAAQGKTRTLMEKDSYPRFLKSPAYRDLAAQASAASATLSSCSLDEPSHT
# Target sequence (P09471 whole entry, looked up): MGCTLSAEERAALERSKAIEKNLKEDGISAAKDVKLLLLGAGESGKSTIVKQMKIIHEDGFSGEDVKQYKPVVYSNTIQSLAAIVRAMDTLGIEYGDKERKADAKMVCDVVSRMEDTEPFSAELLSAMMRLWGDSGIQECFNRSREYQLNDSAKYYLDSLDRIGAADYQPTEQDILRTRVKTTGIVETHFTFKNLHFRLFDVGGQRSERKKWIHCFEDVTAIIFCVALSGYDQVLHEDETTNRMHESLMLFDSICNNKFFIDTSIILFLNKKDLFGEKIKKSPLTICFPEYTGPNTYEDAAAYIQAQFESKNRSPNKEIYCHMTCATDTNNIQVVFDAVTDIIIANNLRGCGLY
# HSV replic up = enhancers of HSV replication in host cells, fold increase, host cell viability; HSV replication augmentation in cells; 0.005% of 220,000 active; AID 1956, 2009; maximum fold increase;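 active = peak rise of 1.5-fold or more in the series; tested in PC3 cells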;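 note: first round at 10 µM; read as green reporter fluorescence; hits show the peak of a series up to 25 µM; 1 = signal of infected wells without compound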
# INS promoter inh cell count = second read-out of INS promoter inh, no call of its own (marks repeat the call); normalized cell count, %; measured here: cell count, toxicity; reference of the scale not given here;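 cells exposed to compound for 48 h; stained nuclei by imaging scaled within each plate; lower means fewer cells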
# HSV replic up primary fold = second read-out of HSV replic up, no call of its own (marks repeat the call); fold increase; compound at 10 µM; measured here: primary screen fold increase 10 uM; tested in PC3 cells;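 GFP signal in the first replicate; 1 = infected wells without compound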
# Active calls of the source: *; i = inactive; . = not tested or not shown; [ ] = remark or other dose. Compounds as they come (roughly 1.3% active in at least one column).
SMILES,PKD1 kinase inh,INS promoter inh,INS promoter inh cell count,GALR2 ag,RGS16-Gao,HSV replic up,HSV replic up primary fold
CCCCNC(=O)C(Sc1ccccc1)c1ccccc1 (configuration not stated),1,-20,114,-1.4,110,i,0.93
CSCC[C@H](NC(=O)Nc1ccc(C)cc1)C(=O)O,-13,-19,122,-1.2,114,i,1
O=C(CC1SC(=NCCc2ccccc2)N(/N=C/c2cccs2)C1=O)Nc1ccc(Cl)cc1 (configuration not stated),-18,.,.,-1.0,72,i,0.74
O=C(O)Cc1ccc2ocnc2c1,-1,-7,116,-1.1,99,i,0.84
CNC(=S)c1cc(C(C)(C)C)c(O)c(C(C)(C)C)c1,.,.,.,.,100,i,1
CCC1SC2=NCN(c3ccccc3)CN2C1=O (configuration not stated),4,-6,49,-2.2,95,i,0.84
COc1ccc(C2/C=C\CN(C(=O)c3ccc(C)cc3)[C@H](Cc3ccccc3)C(=O)N2Cc2ccc(F)cc2)cc1 (some centres not stated),.,.,.,.,106,i,1.1
CC1=C(C(=O)Nc2ccccc2)C(c2cccc([N+](=O)[O-])c2)Nc2nc3ccccc3n21 (configuration not stated),-7,-39,100,-0.2,97,i,0.84
CC(C)c1ccc(NC(=O)NCc2ccc(F)cc2)cc1,-7,.,.,.,103,i,0.78
COC(=O)C1=C(C)N(Cc2ccco2)C(=O)/C1=C\c1ccc(N(C)C)cc1,5,5,59,-1.3,231*[activator],i,0.92
O=C(O)CC/C(=C\c1cccc(NC(=O)c2ccccc2Cl)c1)c1nc2ccccc2s1,-10,.,.,.,97,i,0.97
Cn1c(C(=O)NCC2CCCO2)cc2c(=O)n3ccccc3nc21 (configuration not stated),-2,21,156,-0.8,102,i,0.91
CCOC(=O)N/N=C/c1cc(C)n(-c2cccc3ccccc23)c1C,3,-2,112,-0.9,95,i,1.1
NNC(=O)c1cccc(COc2ccc3c(c2)CCC3)c1,2,-75,59,-0.7,106,i,0.84
O=C(c1ccc(Cl)cc1)c1cc([N+](=O)[O-])ccc1N1CCOCC1,0,.,.,.,115,i,0.61
C/C(=N\NC(=O)CNC(=O)c1ccncc1)c1ccc(C)cc1,-3,27,106,.,110,i,0.83
COc1cc(NC(=O)c2ccc(-c3ccc(Br)cc3)o2)ccc1NC(=O)C(C)C,-5,-16,52,-0.8,94,i,0.87
COc1cccc(C(=O)Nc2ccc(N3CCCC3)cc2)c1,-15,-21,82,-1.1,86,i,0.68
CC(C)Oc1ccc(C(=O)NC2(C(F)(F)F)NC(=O)N(CCCc3ccccc3)C2=O)cc1 (configuration not stated),6,29,132,-0.5,106,i,0.93
O=C(CSCc1cccc(CSCC(=O)Nc2ccccc2)n1)Nc1ccccc1,3,-53,116,-0.8,98,i,1.1
c1nc2nc3c(c(N4CCOCC4)n2n1)CCCC3,-2,.,.,-3.2,93,i,1
COc1ccc(NC(=O)CN(c2cc(C)cc(C)c2)S(=O)(=O)c2c(C)noc2C)cc1OC,-11,.,.,-0.9,102,i,0.87
Cc1ccc(NC(=O)COC(=O)CNC(=O)c2cccc([N+](=O)[O-])c2)cc1S(=O)(=O)N1CCCCCC1,-12,-14,109,-0.3,106,i,1
COc1ccc(NC(=O)CSc2nnc(Cc3cccn3C)n2-c2ccc(F)cc2)cc1,1,.,.,-1.1,105,i,0.86
C=CCOC(=O)C1=C(C)NC(SC)=C(C#N)C1c1cccs1 (configuration not stated),2,-61,166,-0.2,102,i,0.89
COc1cc2c(cc1OC)CN(C(=O)CSc1n[nH]c(N)n1)CC2,-11,.,.,-2.2,103,i,1
Cc1cc(NC(=O)c2noc3c2CCCC3)n(-c2ccccc2)n1,-17,34,83,-1.9,107,i,0.84
CC(C)[C@H](NS(=O)(=O)c1cccc(Cl)c1)C(=O)OCC(=O)N1CCN(c2ccccc2)CC1,9,10,121,0.4,99,i,1.1
COc1cccc(CNC(=O)CCC2CCCN(c3cc(C)nc(N)n3)C2)c1 (configuration not stated),4,.,.,.,98,i,0.87
O=c1nc2n(c3sc4c(c13)CCCC4)C(CBr)CS2 (configuration not stated),-6,14,144,1.1,103,i,1
COc1ccc(OC)c(C(=O)CSc2nnc(Cc3cccs3)n2CCc2ccccc2)c1,-3,3,122,-1.6,98,i,0.84
CCOC(=O)C1(CCOc2ccccc2)CCN(Cc2cnc(C)s2)CC1,-6,.,.,.,93,i,1.1
Cn1nc(C(=O)NCCN2CCOCC2)c2ccccc2c1=O,2,-18,110,-0.4,98,i,1
Cc1ccc(-c2cc(C(=O)NN=C3CCCC3)c3ccccc3n2)cc1,6,.,.,-2.3,103,i,0.97
C[C@]12CC[C@@H]3c4ccc(O)cc4CC[C@H]3[C@@H]1CCC2=O,3,-61,120,-1.7,.,i,0.9
CCOC(=O)Cn1ncc(-c2ccccc2)c1N,-3,7,150,-0.6,98,i,0.89
CSc1nsc(SC)c1NC(=O)N1CCCCC1,-1,16,94,-0.6,100,i,0.95
O=C(CCn1cnc(-c2ccccc2)c1-c1ccccc1)N/N=C/c1ccc(O)cc1,3,-29,77,-0.5,101,i,0.73
Cc1nnn(-c2nonc2N)c1C(=O)N/N=C/c1ccccc1O,6,16,107,1.5,101,i,0.79
CC(C)Nc1nc(NC(C)C)nc(C(N)=O)n1,4,0,92,-0.3,102,i,0.84
Cc1ccc2nc3c(nc2c1)-c1ccccc1C3=O,-12,7,154,-0.6,102,i,0.75
CC(=O)NC(NC(=S)Nc1ccc(N=Nc2ccccc2C)cc1C)C(Cl)(Cl)Cl (configuration not stated),-11,.,.,-2.2,100,i,0.85
COc1ccc(-c2ccc3ccccc3n2)cc1OC,-4,-15,104,.,103,i,0.95
Cc1cc(N2CCN(c3ccccn3)CC2)n2nc(C)nc2n1,-4,24,81,-3.4,.,i,0.94
COc1ccccc1NC(=O)CCC(=O)Nc1nnc(C(F)(F)F)s1,-7,36,122,0.1,103,i,0.9
O=C(Nc1nc2ccccc2s1)C1CCCN1S(=O)(=O)c1ccc(Cl)cc1 (configuration not stated),-4,-15,271,-3.5,95,i,0.92
COc1ccc(Cl)cc1NC(=S)NCc1ccccn1,-7,.,.,-0.5,126,i,1.2
C=CCn1c(CNc2ccc(C)cc2)nnc1SCC(=O)N/N=C/c1ccc(O)cc1,-2,29,110,-1.5,98,i,0.88
CCCCN(C(=O)CNC(=O)c1cccs1)C(C(=O)NC1CCCC1)c1ccncc1 (configuration not stated),2,26,119,.,97,i,1.1
Cc1ccc2c(c1)N(CCCC(=O)NCc1ccc3c(c1)OCO3)C(=O)CO2,-6,-15,68,-0.4,49,.,.
O=C(c1ccccc1)C(C(=O)N1CCc2ccccc2C1)n1ccccc1=O (configuration not stated),-11,-43,158,-0.7,104,i,0.99
Cc1ccnc(N2C(=O)c3ccccc3C2Nc2ccccc2Cl)c1 (configuration not stated),4,.,.,0.1,96,i,0.94
O=C(NCCCCc1ccccc1)c1cccc([N+](=O)[O-])c1,-13,36,101,.,101,i,0.97
O=C(N/N=C/C=C\c1ccccc1[N+](=O)[O-])c1cc(-c2ccccc2)nc2ccccc12,2,56,69,-2.5,114,i,0.95
Nc1cc(Cl)c(N)cc1Cl,-4,0,87,-1.8,104,i,0.85
CCOC(=O)N1CCN(C(=O)c2ccccc2Oc2ccccc2)CC1,-3,-17,147,-0.6,103,i,0.95
CC1Cn2c(nnc2-c2cccs2)S1 (configuration not stated),-4,-6,35,-0.3,.,i,1
O=C(Cn1cnc2c(nnn2Cc2ccc(F)cc2)c1=O)NCC1CCCO1 (configuration not stated),2,-280,95,-0.5,118,i,0.86
CCC(=O)Nc1cc(Cl)ccc1N1CCN(C(=O)CC)CC1,-6,-50,96,-0.1,94,i,0.88
COc1cc(SC)ccc1C(=O)Nc1ccc(Br)cn1,.,.,.,.,101,i,0.96
# Next compounds follow.
SMILES,PKD1 kinase inh,INS promoter inh,INS promoter inh cell count,GALR2 ag,RGS16-Gao,HSV replic up,HSV replic up primary fold
COC(=O)/C=C1\SC(=Nc2ccc(Cl)c(Cl)c2)NC1=O,-1,27,103,.,69,i,1.1
CCCCNC(=O)Nc1nnc(SCC(=O)OCC)s1,-3,.,.,.,107,i,1
COc1cc(N)ccc1NC(=O)c1cccs1,1,17,72,-1.9,102,i,0.95
COc1ccc(C(C)=O)cc1CSc1nnc(C)n1-c1ccccc1,4,22,140,1.0,101,i,1.1
COc1ccc(CCCC(=O)NC(C)c2ccccc2)cc1 (configuration not stated),2,-69,83,0.2,101,i,1
CCN(CC)CCCCOc1ccccc1OC,3,-8,80,-0.7,105,i,0.91
S=C(NCC1CCCO1)NC1CCCC1 (configuration not stated),-1,.,.,.,100,i,0.95
COc1ccc(C(=O)N2CCN(C(=O)Cc3ccccc3)CC2)cc1OC,-4,-14,120,-2.5,106,i,0.73
[O-][n+]1cccc2ncc3cscc3c21,3,14,125,-1.2,73,i,1.1
COC(=O)C1=C(O)/C(=C\c2cc(C)n(-c3ccccc3C)c2C)N=C1C,-1,-42,50,0.0,112,i,1.1
COCC(=O)Nc1nc2ccc(C)cc2s1,-1,25,138,-0.8,102,i,0.86
CCCCOc1ccc(C(=O)Nc2ccc(S(=O)(=O)Nc3cc(C)on3)cc2)cc1OC,3,.,.,0.5,100,i,1.1
CCOC(=O)c1ccc(NC(=O)NC2CC3CCC(C2)N3Cc2nnnn2C(C)(C)C)cc1 (configuration not stated),15,44,95,2.0,100,i,1.1
Cn1c(=O)c([N+](=O)[O-])c(NCC2CCCO2)c2ccccc21 (configuration not stated),.,.,.,.,103,i,1.2
Cc1ccc(C)c(N2CCN(CC3CC=CCC3)CC2)c1 (configuration not stated),-1,-42,90,-1.2,35,i,1.1

# 12 of the compounds above, as tab-separated lines:
Compound	PKD1 kinase inh	INS promoter inh	INS promoter inh cell count	GALR2 ag	RGS16-Gao	HSV replic up	HSV replic up primary fold
COC(=O)/C=C1\SC(=Nc2ccc(Cl)c(Cl)c2)NC1=O	-1	27	103	.	69	i	1.1
CCCCNC(=O)Nc1nnc(SCC(=O)OCC)s1	-3	.	.	.	107	i	1
COc1cc(N)ccc1NC(=O)c1cccs1	1	17	72	-1.9	102	i	0.95
COc1ccc(C(C)=O)cc1CSc1nnc(C)n1-c1ccccc1	4	22	140	1.0	101	i	1.1
COc1ccc(CCCC(=O)NC(C)c2ccccc2)cc1 (configuration not stated)	2	-69	83	0.2	101	i	1
CCN(CC)CCCCOc1ccccc1OC	3	-8	80	-0.7	105	i	0.91
S=C(NCC1CCCO1)NC1CCCC1 (configuration not stated)	-1	.	.	.	100	i	0.95
COc1ccc(C(=O)N2CCN(C(=O)Cc3ccccc3)CC2)cc1OC	-4	-14	120	-2.5	106	i	0.73
[O-][n+]1cccc2ncc3cscc3c21	3	14	125	-1.2	73	i	1.1
COC(=O)C1=C(O)/C(=C\c2cc(C)n(-c3ccccc3C)c2C)N=C1C	-1	-42	50	0.0	112	i	1.1
COCC(=O)Nc1nc2ccc(C)cc2s1	-1	25	138	-0.8	102	i	0.86
CCCCOc1ccc(C(=O)Nc2ccc(S(=O)(=O)Nc3cc(C)on3)cc2)cc1OC	3	.	.	0.5	100	i	1.1

# (list continues)
SMILES,PKD1 kinase inh,INS promoter inh,INS promoter inh cell count,GALR2 ag,RGS16-Gao,HSV replic up,HSV replic up primary fold
NNC(=O)c1csc(-c2ccccc2)n1,.,.,.,.,110,i,0.95
COc1ccc2c(c1)C(c1ccc(N3CCOCC3)cc1)=NNC(c1cccnc1)=N2,-5,37,74,-1.6,139,i,1
Cc1ccc(/C([O-])=C(/C(=S)NCc2ccc3c(c2)OCO3)[n+]2ccc(N(C)C)cc2)c(C)c1,-1,.,.,.,103,i,0.97
O=C(Nc1ccccc1Cl)N1CCN(c2ncccn2)CC1,3,38,180,-1.9,99,i,0.99
CNC(CC(=O)c1ccc([N+](=O)[O-])cc1)C(Cl)(Cl)Cl (configuration not stated),-3,.,.,-0.4,86,i,0.89
C[n+]1ccc(C(=O)NCCC[N+](C)(C)C)cc1/C=N/O,-3,-15,56,.,132,i,0.94
O=C(Nc1cn(-c2ccccc2)nc1-c1ccc(Cl)cc1)c1ccccc1,-6,.,.,-1.7,103,i,0.97
C=C(C)c1cccc(C(C)(C)NC(=O)NC2CCCC2)c1,-14,-11,97,-1.2,34,i,1
CCCCNC(=O)COC(=O)CCC(=O)c1ccc(Cl)cc1,-3,50,141,.,103,i,0.91
